HIV TAR-Tat: HIV-1 TAR-Tat binding disruption; HIV-1 TAR RNA, Tat peptide displacement FRET; stronger effect = higher value; z-score (no concentration beside the values); hit rate 0.6% among 100,000;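 also: score is relative to mean and SD of negative controls; some compounds called inactive have numbers as strong as hits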
CDC25B CDK2 inh: human CDC25B-CDK2/CyclinA binding inhibition; P30305+P24941; HTRF CDC25B-CDK2/CyclinA binding, anti-His/anti-Flag; stronger effect = higher value; z-score (no concentration beside the values); hit rate 0.72% among 94,000;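 also: score is relative to mean and SD of negative controls; strong numbers were not always called active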
The depositor's hits bear a star; nt = no result given.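 The calls were made as follows: active = z-score from 3 up in half or more of its runs; inactive = the rest.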

SMILES	HIV TAR-Tat	CDC25B CDK2 inh
CCc1nnc(SCC2=CC(=O)N3C=CC=CC3N2)nc1CC (configuration not stated)	nt	-0.82
C#CCOc1nc(CC)nc2c1oc1ccccc12	0.96	nt
COc1ccc(NC(c2ccccc2)c2nnc(-c3ccccc3Cl)o2)c(OC)c1 (configuration not stated)	-0.73	nt
CC1CCCN(C(=O)Cn2c(=O)oc3cc(S(=O)(=O)N4CCCC4)ccc32)C1 (configuration not stated)	0.88	-0.4
Brc1ccc(NC(c2ccccc2)c2nnc(-c3ccccc3)o2)cc1 (configuration not stated)	0.94	-1.9
Nc1ncc(Br)cc1S(=O)(=O)Nc1ccccc1F	0.22	-1.5
COC(=O)c1cc2ccc(OC)c(OC)c2c(=O)s1	1	-0.7
COc1ccc(-c2cc(C)no2)cc1S(=O)(=O)N1CCCC1	-1.8	nt
CCC(C)NC(=O)c1ccc2c(Cl)c3c(nc2c1)CCC3 (configuration not stated)	2.9	-2.1
O=c1c2ccccc2nc2n1CCCN2CCOc1ccccc1	2.5	0.47
COc1ccc(C2Nc3ccccc3NC3=C2C(=O)NC3)cc1 (configuration not stated)	nt	0.36
O=C(Nc1c(F)cc(F)cc1Br)C1CCN(C(=O)N2CCOc3ccccc32)CC1	1.2	nt
O=C(O)C1CCC(Cn2c(=S)[nH]c3cc(Cl)ccc3c2=O)CC1 (configuration not stated)	nt	0.16
CC(C)c1ccc(S(=O)(=O)n2nnc3ccccc32)cc1	-0.86	-0.21
O=C(COc1ccccc1Cl)Nc1cccc(OCc2cc(=O)n3c4c(sc3n2)CCCC4)c1	-1.3	-1.7
COc1ccc(-c2csc3ncnc(Nc4cc(OC)cc(OC)c4)c23)cc1	0.37	nt
CN(C)c1nc(OCCNC(=O)Nc2ccc(Cl)cc2)nc(N(C)C)n1	0.16	-0.79
NC(=O)c1nc(-c2ccncc2)nc2c1[nH]c(=O)n2-c1ccc2c(c1)OCO2	0.54	nt
O=C(O)c1cnn2c1NC(c1ccc(Br)cc1)CC2C(F)(F)F (configuration not stated)	1.9	-1.4
O=C(Nc1ccc(Cl)cc1)Nc1csc2c1CCCC2	0.13	-0.07
COCCNC(=O)c1c(NC(=O)c2cc(-c3cccs3)on2)sc2c1CCCC2	1.3	-0.15
C=CCN1C(=S)N(c2cccc(C)c2)C2CS(=O)(=O)CC21 (configuration not stated)	nt	0.33
Cc1nn(C(C)C(=O)NCC2CCCO2)c(=O)c2cc3occc3n12 (configuration not stated)	nt	1.5
CCn1c2ccccc2n2c(=S)[nH]nc12	nt	-2.2
Cn1nc(-c2ccccc2)c(-c2ccccc2)c(C(=O)NCC2CCCO2)c1=O (configuration not stated)	0.78	-0.27
Nc1c(C(=O)c2ccccc2)sc2nc3c(cc12)CCCCC3	2	-3.7
COc1ccc(-c2ccccc2)cc1Br	nt	-1.8
CCOc1ccccc1NS(=O)(=O)c1c(C)nc2scc(C)n2c1=O	0.06	-1.4
C(C=Cc1ccn[nH]1)=Cc1ccccc1	nt	-0.48
O=C(O)C1CN=C(Cc2ccccc2)N1 (configuration not stated)	4.7	nt
Cc1cc(C(=O)Nc2cc(S(=O)(=O)N(C)C)ccc2C)no1	nt	-2.2
COc1ccc(Cl)cc1Nc1ncnc2c1cnn2C	1.4	nt
O=C(O)C1=CC(c2ccc(F)cc2)n2nnnc2N1 (configuration not stated)	1.4	nt
Cc1cc(CNS(=O)(=O)c2ccc3c(c2)oc(=O)n3C)c(C)n1-c1ccc(F)cc1	1.2	nt
CCCCOc1ccc(S(=O)(=O)NCc2cn3cccc(C)c3n2)cc1	nt	-0.78
CC(=O)N1c2ccc(S(=O)(=O)N3CCCC3)cc2CC1C(=O)Nc1ccc(F)cc1F (configuration not stated)	1.4	nt
COc1ccc(/C=C2/N=C(c3ccccc3)NC2=O)cc1	nt	-1.4
N#CCCN(Cc1cccs1)C(=O)Nc1cccc(C(F)(F)F)c1	nt	-1.1
O=C1NC(c2ccc3c(c2)OCO3)C(C(=O)c2ccc(Cl)cc2)C(O)(C(F)(F)F)N1 (configuration not stated)	nt	-0.46
Cc1cn2c(=O)cc(CSc3nc4ccc(NC(=O)c5cccs5)cc4s3)nc2s1	0.86	nt
O=C(CN1N=NC2C(=O)N(c3ccc(F)cc3)C(=O)C21)Nc1ccccc1F (configuration not stated)	1.9	nt
CN(NC(=O)c1ccccc1Cl)c1cccc(F)c1C#N	nt	-1.4
CCCCN(Cc1ccco1)C(=O)Cn1ncc2c1-c1cc(C)ccc1OC2	0.08	-2.8
Cc1cccc(N2CCN([C@H]3CS(=O)(=O)C[C@@H]3S(=O)(=O)c3ccc(F)cc3)CC2)c1	0.4	-2.1
Cc1ccc(C(=O)/C=C2/NCCNC2=O)cc1	nt	-1.8
Cn1c(=O)c(-c2ccccc2)c(O)c2ccccc21	1.3	-2.5
CSc1nc(-c2ccccc2)[nH]c1S(=O)(=O)c1ccccc1	1.4	0.1
CCOC(=O)NC(=O)/C(=C/NCc1ccncc1)C(=O)OCC	nt	-3.3
CCCC1c2ccc(C)n2CCN1C(=O)Nc1cccc(Cl)c1 (configuration not stated)	-8.9	-2.8
CCOc1ccc(-c2noc(-c3scc(-c4cccc(C)c4)c3-n3cccc3)n2)cc1	0.74	-2.7
O=C(C1COc2cc(S(=O)(=O)N3CCN(c4ccc(F)cc4)CC3)ccc2O1)N1CCCCC1 (configuration not stated)	0.27	nt
CC1=C(C(=O)OCCOC(C)C)C(c2coc3ccccc3c2=O)C2=C(CC(C)(C)CC2=O)N1 (configuration not stated)	0.07	-1.1
O=C(CCC(=O)N1Cc2ccccc2Oc2ncccc21)NC1CCCCC1	2.8	nt
O=C(NCc1ccccn1)C(=O)NCC(c1cccs1)S(=O)(=O)c1ccccc1 (configuration not stated)	1.3	nt
CC1=C(C(=O)N2CCN(c3ccc(Cl)cc3)CC2)C2(CCCCC2)OC1=O	0.24	-1.3
O=C(O)CCCNS(=O)(=O)c1ccc(Cl)cc1	2.1	0.53
COc1ccc(NC(=O)Cn2nnc3sc4c(c3c2=O)CCCC4)c(OC)c1	-0.83	-0.89
CC(C)(C)OC(=O)N1Cc2ccccc2C[C@@H]1C(=O)NCc1cccs1	nt	-1.9
O=C(Cn1ncc2c3ccccc3n(Cc3ccccc3F)c2c1=O)N1CCc2ccccc21	1.9	-0.48
Cc1nn2c3c(cnc2c1-c1ccccc1)C(=O)CC(c1cccs1)C3 (configuration not stated)	-2.3	0.03

(list continues)
SMILES	HIV TAR-Tat	CDC25B CDK2 inh
CCCc1n(CC(O)COC2CCCCC2)c2ccccc2[n+]1C (configuration not stated)	0.65	-1.1
CC1(C)NC(=O)N(CC(O)COc2ccc(F)cc2)C1=O (configuration not stated)	3.5	-0.97
c1ccc(CN(Cc2nnc(-c3ccccc3)o2)c2ccccc2)cc1	0.23	-1.2
COc1ccc(C(=O)/C=C(\C(=O)c2ccccc2)c2ccccc2)cc1CN1CCOCC1	nt	-0.52
CS(=O)(=O)CCC(C(=O)N1CCN(C(=O)c2ccco2)CC1)N1Cc2ccccc2C1=O (configuration not stated)	0.96	nt
Cc1cc(Cl)ccc1N1CC(O)=C(c2nc3ccccc3s2)C1=N	1.4	-0.77
COc1cc(/C=C2\N=C(SC)SC2=O)ccc1OCc1ccccc1	-1.1	-0.12
Cn1c(=O)c(=O)n(C)c2cc(NS(=O)(=O)c3ccc4c(c3)CCCC4)ccc21	1	nt
Cc1nnc2sc(SCC(=O)Nc3ccc(F)cc3F)nn2c1=O	2.1	nt
O=C1CCCc2cc(S(=O)(=O)N(Cc3cccs3)C3CCCCC3)ccc2N1	0.84	nt
CCOC(=O)c1nc[nH]c1C(=O)OCC	1.9	-0.32
COC(=O)c1sc(SC)c(-c2ccn(C(=O)c3ccc(Cl)cc3)n2)c1C	nt	-1.3
c1ccc2cc(Cn3cnc4ccccc43)ccc2c1	1.4	-2.3
COc1cccc2c1c(NC(=O)CSCC(=O)O)nn2C	nt	-2.5
COc1ccc2nc(NC(=O)CSc3nc4nc(C)ccc4o3)sc2c1	0.83	nt
CCc1cc2c3c([nH]c2cc1S(=O)(=O)NCc1ccc(C)cc1)CCCC3=O	0.04	nt
COC(=O)c1sccc1N1C(=O)c2ccncc2C1=O	0.56	nt
C=CCOc1cccc(C2Nc3ccccc3S(=O)(=O)N2Cc2ccccc2)c1 (configuration not stated)	nt	-1.2
O=C(NCc1cccc(Br)c1)c1cnc2sc3c(n2c1=O)CCCC3	1.2	nt
CN(C)CCN1C(=O)C(=O)/C(=C(/O)c2ccc(F)cc2)C1c1ccc(Cl)cc1 (configuration not stated)	0.41	0.78
COc1cc(C2CC(c3c(O)n(C)c(=O)[nH]c3=O)=Nc3ccccc3S2)ccc1O (configuration not stated)	0.86	-0.27
O=C(Nc1ccc(Cl)cc1)C1(c2cccs2)CCOCC1	0.49	nt
COC(=O)c1cn(CCOc2ccccc2)c2ccccc12	2	1.5
O=C(CSc1ccc(Cl)cc1)Nc1nc(-c2ccncc2)cs1	0.73	nt
CC(NC(=S)NCc1ccncc1)c1ccccc1 (configuration not stated)	nt	-1.2
COc1ccc2cc(CCNC(=O)C3CCCC3)c(=O)[nH]c2c1	nt	-0.9
O=C1CC2C(=O)NCCN2C(=NC(=O)c2ccc(Cl)cc2)N1 (configuration not stated)	1.9	-1.3
CN(C)c1ccc(NC(=O)CSc2nc3c(c(=O)[nH]2)CCCC3)cc1	0.39	-1.3
Cc1ccc(N2CCN(c3ccc4nncn4n3)CC2)c(C)c1	-1.4	0.29
Oc1c(Cl)cc(Cl)c(Cl)c1Cc1c(O)c(Cl)cc(Cl)c1Cl	3	nt
COc1ccc(C2=NN(S(=O)(=O)c3ccccc3)C(c3ccc(F)cc3)C2)cc1OC (configuration not stated)	nt	-0.93
O=S(=O)(NCC(c1ccco1)N1CCN(c2ccc(F)cc2)CC1)c1ccccc1 (configuration not stated)	0.65	nt
COc1ccc(CCN[C@H]2CS(=O)(=O)C[C@@H]2S(=O)(=O)c2ccc(F)c(C)c2)cc1	1	0.89
O=S1(=O)C[C@H](NCc2ccccc2Cl)[C@@H](S(=O)(=O)c2cccs2)C1	0.1	-1.7
O=C(c1cc(=O)c2ccccc2o1)N1CCN(c2cccc(Cl)c2)CC1	1.8	-1.2
CCOc1nc2cccnc2n(Cc2ccc(Br)cc2F)c1=O	1.3	nt

7 records picked at random from those above:
SMILES	HIV TAR-Tat	CDC25B CDK2 inh
Cc1ccc(N2CCN(c3ccc4nncn4n3)CC2)c(C)c1	-1.4	0.29
O=C(c1cc(=O)c2ccccc2o1)N1CCN(c2cccc(Cl)c2)CC1	1.8	-1.2
CCOc1nc2cccnc2n(Cc2ccc(Br)cc2F)c1=O	1.3	nt
COc1ccc(C2=NN(S(=O)(=O)c3ccccc3)C(c3ccc(F)cc3)C2)cc1OC (configuration not stated)	nt	-0.93
O=S1(=O)C[C@H](NCc2ccccc2Cl)[C@@H](S(=O)(=O)c2cccs2)C1	0.1	-1.7
CN(C)c1ccc(NC(=O)CSc2nc3c(c(=O)[nH]2)CCCC3)cc1	0.39	-1.3
CC(NC(=S)NCc1ccncc1)c1ccccc1 (configuration not stated)	nt	-1.2

Next part:
SMILES	HIV TAR-Tat	CDC25B CDK2 inh
O=c1c(SCc2ccccc2)nccn1-c1ccccc1	1.1	nt
CC(C)NC(=O)Cc1c(O)c2ccccc2[nH]c1=O	1.2	nt
CC1(C)CC(=O)C2=C(C1)OC(N)=C(C#N)C2c1cccc(Cl)c1 (configuration not stated)	nt	-0.53
C=CCNc1ncnc2c1cnn2-c1ccc(C)c(Cl)c1	1.5	nt
Brc1ccccc1Nc1nc2ccccc2n2cnnc12	-0.07	-0.99
COCCNC(=O)c1cc2cc3ccc(C)cc3nc2s1	nt	-1.1
CCn1nc(C)cc1-c1nnc(SCC(=O)Nc2ccccc2)n1-c1ccccc1	nt	0.13
COc1ccc(C2OCC3(CO2)SC(=O)NC3=O)cc1OC (configuration not stated)	nt	-0.7
CC1CCCN(c2c(S(=O)(=O)c3ccccc3)cnc3ccc(F)cc23)C1 (configuration not stated)	-0.05	0.76
C=CCOC(=O)C1=C(C)NC2=C(C(=O)CCC2)C1c1cc2c(cc1Cl)OCO2 (configuration not stated)	1.6	-0.64
O=S1(=O)CCC(S(=O)(=O)NCCc2ccccc2)C1 (configuration not stated)	1.2	-1.3
CC(=O)Nc1ccc(OCCCNC(=O)C2=NNC(=O)CC2)cc1	nt	-1

In another format: entries from further up.
smiles | HIV TAR-Tat | CDC25B CDK2 inh
C=CCNc1ncnc2c1cnn2-c1ccc(C)c(Cl)c1 | 1.5 | nt
Brc1ccccc1Nc1nc2ccccc2n2cnnc12 | -0.07 | -0.99
COCCNC(=O)c1cc2cc3ccc(C)cc3nc2s1 | nt | -1.1

Further compounds follow:
SMILES	HIV TAR-Tat	CDC25B CDK2 inh
O=C(Nc1ccccc1Cl)c1ncoc1-c1ccco1	0	nt
CC1=C(C(=O)Nc2ccc(Br)c(C)c2)C2(CCC(C)CC2)OC1=O (configuration not stated)	0.77	0.09
C=CCSc1nnc2c(n1)OC(c1ccco1)N(C(C)=O)c1ccccc1-2 (configuration not stated)	-0.77	-1.3
CCCCCSc1nnc2c(n1)OC=Nc1ccccc1-2	-0.01	-0.71
CCCCc1cc(=O)oc2c(C)c(OC(C)C(=O)OC)ccc12 (configuration not stated)	nt	-1.4
Cc1cc(C)c2nc(N3CCC(C(=O)NC4CC4)CC3)sc2c1	-1.9	-2.3
O=C1c2cccnc2C(=O)N1Cc1ccc(S(=O)(=O)N2CCOCC2)s1	-0.29	nt

Screens as filed in PubChem BioAssay.
